Vaccinia Venus: inhibitors of vaccinia virus (Venus reporter); Vaccinia virus Venus reporter expression, fluorescence; Potency, µM (top dose mostly 36.5 µM), inactives show at the highest dose activity change, negative = inhibition, hits mostly inhibitors; 0.46% of 330,000 active; AID 720580; active means well fitted inhibition curve with a large enough effect; inconclusive means small, poorly fitted or top-dose-only effect; inactive means no such curve, though single readings can be large or run the other way; tested in A549 cells; further: nearly all actives have a fitted effect of over 30% in size; inactives centre near -10
VACV mCherry inh: inhibitors of vaccinia virus infection (mCherry reporter signal); Vaccinia virus mCherry reporter infection, fluorescence; about a quarter of the inactives have no number; Potency, µM (series often up to 36.5 µM), for inactives: top-dose activity change, negative = inhibition, hits mostly inhibitors; 0.63% of 310,000 active; AID 720579; active = well fitted inhibition curve with a large enough effect; inconclusive = small, poorly fitted or top-dose-only effect; inactive = no such curve, though single readings can be large or run the other way; tested in A549 cells; further: nearly all actives have a fitted effect of over 35% in size; inactives centre near -10
Starred values were filed as active, the others as inactive; i = inactive; ? = inconclusive; . = no result given; & = joins results of further samples; [ ] = another dose, or the depositor's remark. On the % scale 0 is the no-effect control and ±100 the full control effect; potency means the concentration at half of the fitted maximal effect.

SMILES	Vaccinia Venus	VACV mCherry inh
COc1ccc(S(=O)(=O)N2CCOC2CNC(=O)C(=O)NCCc2ccc(S(N)(=O)=O)cc2)cc1 (stereo not drawn)	2.8%	-0.9%
Cc1cccc(N(CC(=O)NC2CCCCC2)C(=O)CCC(=O)Nc2nccs2)c1	-6.1%	i
CC1(C)CNC(=S)N1Cc1ccccc1	-6.3%	-20.3%
CC1(c2ccc3noc(-c4cccc(F)c4)c3c2)OCCO1	-7.6%	-17.7%
Cc1nc(COc2ccccc2Cl)sc1-c1ccnc(N)n1	?	?
O=S(=O)(Nc1ccncc1Cl)c1cccc(Cl)c1Cl	8.2%	-6.2%
CC(O)[C@H]1CNC(=O)C(=O)N1CCc1cc(C(F)(F)F)cc(C(F)(F)F)c1 (stereo partly drawn)	1.3%	i
COc1cccc(C(=O)OCCN2CCOCC2)c1	-11.3%	i
COC(=O)c1ccc(Nc2ncnc3c2cnn3C)cc1	-4.5%	-10.4%
COCCCn1c(=O)/c(=C\c2cccc(OC)c2OC)s/c1=C(/C#N)C(=O)Nc1ccc(C(=O)O)cc1	20.3%	7.8%
O=C(NC1CCOc2ccccc21)c1ccc(=O)[nH]c1 (stereo not drawn)	-17.6%	-13.6%
CCN(CC)CCOC(=O)c1ccc(N/C=C(/C#N)c2nc(-c3ccc(OC)cc3)cs2)cc1	-5.0%	i
COC(=O)c1cc(OC(=O)c2ccc(=O)[nH]c2)cc(C(=O)OC)c1	-10.9%	i
CC(=O)C1=C(C)N(Cc2ccccc2)C(=O)N[C@H]1c1cccs1	-20.5%	-26.1%
CCOc1ccc(CCNC(=O)CCc2nnc3ccc(N4CCOCC4)nn23)cc1OCC	-8.4%	-2.6%
Cn1nc([N+](=O)[O-])nc1Oc1ccccc1C(=O)N1CCOCC1	1.2%	11.3%
COc1ccccc1-n1c(O)c(C=NCCCn2ccnc2)c(=O)[nH]c1=O	-5.7%	.
Cn1cnc([N+](=O)[O-])c1Sc1ccc(C(C)(C)C)cc1	4.7%	i
O=C(NCc1ccco1)c1ccc2sc([C@@H]3O[C@H](CO)[C@@H](O)[C@H]3O)nc2c1	6.6%	-8.9%
COc1ccc(-c2cc(C(F)(F)F)nc(SCCC(=O)Nc3ccccc3F)n2)cc1	-7.5%	-16.9%
COCCNC(=O)CN1CCN(C(c2ccccc2)c2ccccc2)CC1	-8.5%	-23.6%
COCC(C)NC(=O)CSc1ncnc2sc(-c3ccccc3)cc12 (stereo not drawn)	?	?
O=S(=O)(Nc1ccc(Br)cc1)c1ccc2nc(-c3ccccc3)[nH]c2c1	-14.3%	?
CCOc1ccc(CNc2ccc(N3CCN(Cc4ccccc4)CC3)cc2)cc1	6.0%	?
COc1cccc(NC(=O)c2cc(-c3ccncc3)nc3c(C)cc(C)cc23)c1	-2.9%	-5.0%
CN(C(=S)NC(=O)c1ccccc1Br)C1CCCCC1	-15.5%	-20.1%
CCN(CC)CCCNC(=O)Cn1cnc2sc(C)c(S(=O)(=O)N3CCC(C)CC3)c2c1=O	-17.3%	-5.8%
CCCc1cn(S(=O)(=O)c2ccc(OC)cc2OC)nc1N	-15.1%	-1.6%
COc1cc2c(cc1OC)CC(=O)N(C)CC2	-4.9%	-12.5%
Cc1ccc(-c2nnn3c2nc(NCCc2ccccc2)c2ccccc23)cc1	5.2%	12.3%
COc1ccccc1CC(=O)Nc1ccc2nc(C)sc2c1	-4.3%	-10.5%
COCCNC(=O)CN(Cc1ccco1)C(=O)CCC(=O)Nc1nccs1	-10.7%	-13.7%
COc1ccc(-c2nnn(CC(=O)N(Cc3ccco3)C(C(=O)NCC3CCCO3)c3ccco3)n2)cc1 (stereo not drawn)	-3.9%	-11.8%
CCOC(=O)Cn1c(=O)oc2cc(S(=O)(=O)N3CCN(c4cccc(Cl)c4)CC3)ccc21	-13.1%	-10.2%
CCc1c(C(=O)NC(C)C2CCCO2)csc1C (stereo not drawn)	-8.3%	-4.3%
O=C1COc2ccc(S(=O)(=O)NCCc3ccc(Cl)cc3)cc2N1	-7.1%	-20.1%
CCC(C)CCN1C(Nc2ccccc2)=NC[C@@H]1CC(C)C (stereo partly drawn)	-21.1%	-2.3%
Cn1c2c(c(=O)n(C)c1=O)NC1(N2)C(=O)Nc2ccccc21 (stereo not drawn)	-15.1%	-9.6%
O=C(OCc1cn([C@@H]2CN(C(=O)c3cccs3)[C@@H](c3ccc(Cl)cc3)C[C@H]2O)nn1)c1ccccc1	-10.3%	i
COc1cc(NC(=O)C2=C(N3CCOCC3)/C(=C\c3ccc(Cl)cc3Cl)CC2)cc(OC)c1OC	-17.8%	?

By substructure: those above containing a furan ring, fused or not (3)
SMILES	Vaccinia Venus	VACV mCherry inh
O=C(NCc1ccco1)c1ccc2sc([C@@H]3O[C@H](CO)[C@@H](O)[C@H]3O)nc2c1	6.6%	-8.9%
COCCNC(=O)CN(Cc1ccco1)C(=O)CCC(=O)Nc1nccs1	-10.7%	-13.7%
COc1ccc(-c2nnn(CC(=O)N(Cc3ccco3)C(C(=O)NCC3CCCO3)c3ccco3)n2)cc1 (stereo not drawn)	-3.9%	-11.8%

Other records.
SMILES	Vaccinia Venus	VACV mCherry inh
CC(=O)NCc1cc(-c2ccc(Cl)cc2)no1	-14.7%	i
Cc1c(Cl)cccc1N1C(=O)CC(NNC(=O)c2cccs2)C1=O (stereo not drawn)	-10.0%	i
CC(C)(C)NC(=O)C(C1CC1)n1c(=O)c(-c2ccccc2)nc2ccccc21 (stereo not drawn)	-7.2%	-14.1%
COc1ccc2c(C)c(CCC(=O)NC3CC3)c(=O)oc2c1	-6.1%	3.0%
Cc1ccc(S(=O)(=O)NC(C)C(=O)Nc2ccc3c(c2)OCO3)cc1 (stereo not drawn)	-9.1%	-9.2%
COc1cccc(-n2c(O)c(C=NCCN3CCOCC3)c(=O)[nH]c2=O)c1	-7.1%	.
O=C(CC1C(=O)NCCN1C(=O)Nc1ccc(F)cc1F)Nc1ccc(F)cc1 (stereo not drawn)	-4.4%	-6.1%
C=CCN(C(=O)c1csnn1)C(C(=O)NC1CCCC1)c1cccs1 (stereo not drawn)	0.5%	0.6%
O=C(NC1(C(F)(F)F)N=C(c2ccccc2)N(C2CCCCC2)C1=O)c1ccccc1F (stereo not drawn)	-20.9%	i
CC1OC(CCc2cccc(Cl)c2)Cc2[nH]c(=S)[nH]c(=O)c21 (stereo not drawn)	-15.6%	-21.2%
CC(=O)N1c2ccc(S(=O)(=O)N3CCC(C(=O)N4CC(C)CC(C)C4)CC3)cc2CC1C (stereo not drawn)	-9.1%	i
CCCn1c2ccccc2c2cnn(CC(=O)N(CCCOC(C)C)Cc3ccco3)c(=O)c21	-15.6%	-11.9%
O=C(COC(=O)/C=C/c1ccc(Cl)cc1)NCc1cccs1	-9.6%	-22.2%
CCc1ccc2[nH]c(=O)c(CN(Cc3ccccc3)Cc3nnnn3Cc3ccccc3)cc2c1	?	?
COc1ccc(C=O)cc1Cn1ccnc1C	-7.0%	-20.5%
COc1ccccc1-c1nnc(NC(=O)c2ccc3c(c2)OCO3)s1	-11.0%	-20.0%
O=C(C(Cc1ccccc1)n1cccc1)N1CCN(c2ccccc2)CC1 (stereo not drawn)	-2.4%	i
CCCCC(=O)NC(=S)Nc1cccc(NC(=O)c2ccccc2)c1	-28.9%	-24.8%
COCCn1nnnc1C(CC(C)C)N1CCN(c2nc3ccccc3s2)CC1 (stereo not drawn)	-3.0%	i
CC(C)OC(=O)C1CC=CCC1C(=O)Nc1ccc(Cl)cc1 (stereo not drawn)	-24.9%	.
CC1CCN(C(=O)c2ccc3c(c2NCCO)C(=O)c2ccccc2C3=O)CC1	?	.
COc1ccc(/C=N/NC(=O)CN2CCSCC2)cc1C	-7.1%	-12.2%
Cc1cccc(C(=O)O/N=C2\CCS(=O)(=O)c3sccc32)c1	1.1%	.
C=CCNc1nc2c(c(=O)n(C)c(=O)n2C)n1CC	-3.2%	-1.6%
Cc1nc2c(C)cccn2c(=O)c1NC(=O)c1ccco1	-2.4%	i
Cc1ccccc1S(=O)(=O)Cc1ccc(C(=O)NC2CCC(C)CC2)o1 (stereo not drawn)	-3.1%	-13.4%
CCN(Cc1ccccc1)S(=O)(=O)c1ccc(N2CCCCS2(=O)=O)cc1	-18.5%	-5.9%
CC(C)COc1ccc(C2=NC(c3ccncc3)=Nc3ccc(F)cc3N2)cc1	3.5%	-9.0%
OCCNc1nc(N2CCCCC2)nc2ccccc12	-5.8%	i
COc1cccc(NC(=O)COc2nc3ccccc3nc2C)c1	-6.1%	-13.0%
COc1cccc(-c2cc(C(F)(F)F)nc(NCc3ccc(F)cc3)n2)c1	-7.2%	-13.8%
COc1ccc(-c2nnc(SCC(=O)NC3CCCCC3)o2)cc1OC	-13.0%	?
O=C(CCCN1C(=O)c2ccccc2C1=O)Oc1ccc(Cl)cc1	1.0%	-11.5%
O=C(C[n+]1ccncc1)c1cccc2ccccc12	6.0%	-9.0%
C(=C\c1ccccc1)/C=N/Nc1nc2ccccc2s1	-2.5%	-19.9%
NC(=O)C1(N2CCCCC2)CCN(CC(=O)Nc2ccccc2Sc2ccccc2)CC1	-25.8%	-19.7%
Cc1ccc(-c2cc(C(=O)O)c3cc(Br)ccc3n2)s1	-20.4%&-19.0%	-7.8%
NS(=O)(=O)c1ccc(N2CCOCC2)c(C(=O)NCc2cccs2)c1	-12.4%	0.3%
CCN(CC)c1ccc(C2Nc3ccccc3-c3cc(C)nn32)cc1 (stereo not drawn)	-12.3%	-17.4%
O=c1/c(=C\c2cc([N+](=O)[O-])cc([N+](=O)[O-])c2O)sc2nc3ccccc3n12	-14.9%	i
Cc1nn(-c2ccccc2)c(OC(=O)c2cccs2)c1S(=O)(=O)c1ccccc1	-13.0%	.
CCOC(=O)C1(C)CCN1C(=O)c1ccccc1C(F)(F)F (stereo not drawn)	-0.2%	i
Cc1nc(SCC(=O)NC2CCCC2)[nH]c(=O)c1C	19.5%	-12.2%
Cc1ccc(NC(=S)NN2CCOCC2)c(C)c1	1.3%	.
CCOC(=O)CN1C(=O)N[C@@H](c2ccccc2)C(C(C)=O)=C1C	-9.5%	i
O=C(Cn1[nH]c(=O)c2ccccc2c1=O)OCC(=O)c1ccccc1Cl	-18.8%	-16.6%
O=C(N/N=C/c1c(Cl)[nH]c2ccccc12)c1ccc2c(c1)OCCO2	-7.0%	-14.6%
Cc1oc2c(CN3CCOCC3)c(O)ccc2c(=O)c1-c1ccc(Br)cc1	-24.0%	-15.6%[1.46 µM]
COc1ccc2c(c1)N(C[C@H](C)CN(C)C)c1ccccc1S2	-28.4%	?
CC(=O)c1ccccc1OCCOCCOc1ccccc1C(C)=O	-11.3%	i
CC(NC(=O)C1(S(=O)(=O)c2ccc(Cl)cc2)CC1)c1ccccc1 (stereo not drawn)	-13.1%	-23.9%
CC(C)(C)c1ccc(O)c(N=Cc2cccc([N+](=O)[O-])c2)c1	-10.1%	i
CCCC(=O)N(Cc1cccnc1)c1nc2c(OC)ccc(Cl)c2s1	-15.5%	-17.0%
COc1cccc(CNC(=O)c2ccc(-n3c(C)cc4c3CCCC4)cc2)c1	?	i
COc1ccc(C2C=C(c3ccc(F)cc3)Nc3nc(-c4ccc(Cl)cc4)nn32)cc1 (stereo not drawn)	?	?
COCCN1CCc2nc(SCC(=O)Nc3ccc(Br)cc3)[nH]c(=O)c2C1	1.6%	-13.0%
COCCn1c(SCC(=O)Nc2cc(C(C)(C)C)nn2-c2ccccc2)nnc1-c1ccncc1	-1.7%	i
COc1ccc(CCNC(=O)Cc2cc3c(cc2[N+](=O)[O-])OCO3)cc1OC	0.8%	i
Cc1ccc(C(=O)N(C)Cc2nc3ccccc3c(=O)[nH]2)cc1NC(=O)c1ccco1	0.0%	i
Cc1nc(C)c(C(=O)Nc2ncc([N+](=O)[O-])s2)o1	-4.3%	-0.7%

(listing goes on)
SMILES	Vaccinia Venus	VACV mCherry inh
Cc1ccc(S(=O)(=O)/N=C(/Nc2ccccn2)c2ccc(Cl)cc2)cc1	-12.1%	-16.0%
CN(C)C(=O)c1cccc(-c2cnc3c(NC=O)cc(-c4ccccc4Cl)cn23)c1	?	?
N#CC1=C(N)SC(N)=C(C#N)C1c1c(Cl)cccc1Cl	-7.3%	.
CCOC(=O)[C@]12CCC=C1N(Cc1ccco1)C(=O)[C@H](CC(=O)N1CCC(c3ccccc3)CC1)C2	-8.5%	i
COCc1cccc(C2=CC(=O)C[C@H](c3ccc(F)cc3)C2)c1	-16.9%	-15.1%
CCc1nnc(NC(=O)CSc2nc(-c3ccccc3)cc(-c3ccc(OC)cc3)c2C#N)s1	-13.3%	i
CC(CC(=O)O)CC(=O)Nc1nncs1 (stereo not drawn)	-11.1%	i

Whole records as entered above. Values in the order: Vaccinia Venus | VACV mCherry inh
O=C(C[n+]1ccncc1)c1cccc2ccccc12 is listed with 6.0% | -9.0%
Cc1ccc(S(=O)(=O)/N=C(/Nc2ccccn2)c2ccc(Cl)cc2)cc1 is listed with -12.1% | -16.0%
COc1ccc(CCNC(=O)Cc2cc3c(cc2[N+](=O)[O-])OCO3)cc1OC is listed with 0.8% | i

Looked up by structure from the entries so far, 5 records:
SMILES	Vaccinia Venus	VACV mCherry inh
Cc1ccc(-c2nnn3c2nc(NCCc2ccccc2)c2ccccc23)cc1	5.2%	12.3%
Cc1oc2c(CN3CCOCC3)c(O)ccc2c(=O)c1-c1ccc(Br)cc1	-24.0%	-15.6%[1.46 µM]
CN(C(=S)NC(=O)c1ccccc1Br)C1CCCCC1	-15.5%	-20.1%
COCCn1nnnc1C(CC(C)C)N1CCN(c2nc3ccccc3s2)CC1 (stereo not drawn)	-3.0%	i
COCc1cccc(C2=CC(=O)C[C@H](c3ccc(F)cc3)C2)c1	-16.9%	-15.1%
